VCAM-1 inhibition: inhibitors of TNFa-induced VCAM-1 surface display, cell-based, plate reader, pooled HUVEC, TNFa stimulus (AID 454); HUVEC TNFa-induced VCAM-1 surface immunofluorescence, plate reader; numbers were filed only for top-ranked candidate wells; inhibition, % at 5 µM; hit rate 0.2% among 10,000;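 active = compound among top-ranked inhibitors of TNF-induced VCAM-1 adhesion protein staining, with the hit upheld by image or statistical review; inactive = the rest, including hits rejected on review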;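 note: 0% = TNFa with vehicle and 100% = cells without TNFa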
VCAM-1 down imaging: suppression of endothelial VCAM-1 upregulation – imaging, high-content imaging, pooled HUVEC, TNFa stimulus (AID 456); HUVEC TNFa-induced VCAM-1 surface expression, immunofluorescence imaging; numbers were filed only for top-ranked candidate wells; one-dose inhibition, % at 5 µM; IC50 in µM for titrated hits; hit rate 0.2% among 10,000;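 active = top tenth filtered wells with inhibition above zero that passed visual or statistical confirmation; inactive = the rest, including hits rejected on review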;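 note: 0% = stimulated vehicle wells and 100% = unstimulated cells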
FPRL1 ligand: ligands of human FPRL1, also counter-screen for FPR ligands. FPRL1-expressing cells, fluorescent ligand binding inhibition, flow cytometry. inhibition, %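 (tested at 6.7 µM)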. hit rate 0.3% among 24,000. AID 441;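 note: 0% = buffer alone and 100% = receptor blocker peptide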
Target sequence (P25090 whole entry, looked up): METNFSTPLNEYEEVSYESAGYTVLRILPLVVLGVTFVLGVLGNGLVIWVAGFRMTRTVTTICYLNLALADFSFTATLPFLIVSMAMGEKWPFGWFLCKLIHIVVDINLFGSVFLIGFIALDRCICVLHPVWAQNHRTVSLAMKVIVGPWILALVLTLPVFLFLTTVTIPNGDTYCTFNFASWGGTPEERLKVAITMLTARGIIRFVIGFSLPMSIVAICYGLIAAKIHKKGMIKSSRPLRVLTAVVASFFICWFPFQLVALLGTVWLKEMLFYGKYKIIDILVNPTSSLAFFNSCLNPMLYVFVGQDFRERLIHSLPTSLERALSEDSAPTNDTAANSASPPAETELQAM
FPR binder: binds the human formylpeptide receptor FPR | FPR-expressing cells, fluorescent ligand binding, flow cytometry | inhibition, %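 (tested at 6.7 µM)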 | hit rate 0.74% among 24,000 | AID 440;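 note: 0% = buffer wells and 100% = receptor blocker peptide wells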
Target sequence (P21462 whole entry, looked up): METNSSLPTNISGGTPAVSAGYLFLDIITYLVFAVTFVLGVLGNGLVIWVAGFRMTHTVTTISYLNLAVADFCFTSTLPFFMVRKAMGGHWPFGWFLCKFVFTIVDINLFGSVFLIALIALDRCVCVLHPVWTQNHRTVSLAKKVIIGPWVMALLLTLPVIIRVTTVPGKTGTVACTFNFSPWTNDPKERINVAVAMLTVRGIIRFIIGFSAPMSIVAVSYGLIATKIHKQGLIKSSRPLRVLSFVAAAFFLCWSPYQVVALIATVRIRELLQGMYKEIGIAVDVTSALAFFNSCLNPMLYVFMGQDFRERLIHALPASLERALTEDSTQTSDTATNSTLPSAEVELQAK
VCAM-1 up imaging: boosters of cytokine-driven VCAM-1 levels – imaging, high-content imaging, pooled HUVEC, TNFa stimulus (AID 457); Pooled HUVEC, TNFa-induced VCAM-1 immunofluorescence imaging; hits of this screen are not shown here; hit rate 0.2% among 10,000; calls only;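 active = a top-ranked rise in VCAM-1 staining upheld on image or statistical review; inactive = the rest, including candidates rejected on review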;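 note: compounds tested at 5 µM in the well; cells exposed to compound for 24 hours before fixing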
The depositor's hits bear a star; i = inactive; . = not tested or not shown.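 Rule for the calls, unless noted: active = mean above 30%; inconclusive = self-fluorescent; inactive = the rest.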 The list is partial; rates above refer to the full screens.

SMILES	VCAM-1 inhibition	VCAM-1 down imaging	FPRL1 ligand	FPR binder	VCAM-1 up imaging
CC(C(=O)N1CCCc2c1c(=O)oc1ccc(O)cc21)N1CCc2ccccc2C1 (stereo unspecified)	.	.	0.1	-4.4	.
CCC(C)c1ccc(NC(=O)c2cccnc2)cc1 (stereo unspecified)	i	i	-0.8	3.3	i
CCC(NC(C)C)C(O)c1ccc(O)c(O)c1 (stereo unspecified)	i	i	-2.5	4.4	i
CC1=C(C(=O)OC(C)C)C(C2CC=CCC2)NC(=O)N1 (stereo unspecified)	i	i	8.8	-1.1	i
CC1CCN(C(=O)C2c3ccccc3C(=O)N3CCc4ccccc4C23)CC1 (stereo unspecified)	.	.	3.6	-1.5	.
CCOC(=O)c1ccc(N2C(=O)c3n[nH]c(C)c3C2c2ccccn2)cc1 (stereo unspecified)	.	.	-1.8	-2.8	.
CC1CCN(CCCn2c(=S)[nH]c3ccc(N4CCOCC4)cc3c2=O)CC1	.	.	1.4	3.2	.
COc1cccc(C2N(c3ccc(Cl)c(Cl)c3)C(=O)C3CCCN32)c1OC (stereo unspecified)	.	.	-3.0	-3.9	.
O=C(NCCCN1CCOCC1)c1cc2cc(Br)ccc2oc1=O	.	.	7.1	6.3	.
CC(=O)Nc1ccc(S(=O)(=O)NCc2ccc(C(=O)NCc3ccc4c(c3)OCO4)cc2)cc1	.	.	-4.8	-3.9	.
O=C(CSc1nccn1-c1ccc(F)cc1)NCc1ccc2c(c1)OCO2	.	.	-13.6	-4.2	.
CCOC(=O)c1nnn(-c2nonc2N)c1-c1ccc(OCC)cc1	.	.	-2.8	-0.1	.

Molecules from the list above with a halogen (3):
SMILES	VCAM-1 inhibition	VCAM-1 down imaging	FPRL1 ligand	FPR binder	VCAM-1 up imaging
COc1cccc(C2N(c3ccc(Cl)c(Cl)c3)C(=O)C3CCCN32)c1OC (stereo unspecified)	.	.	-3.0	-3.9	.
O=C(NCCCN1CCOCC1)c1cc2cc(Br)ccc2oc1=O	.	.	7.1	6.3	.
O=C(CSc1nccn1-c1ccc(F)cc1)NCc1ccc2c(c1)OCO2	.	.	-13.6	-4.2	.

(more compounds)
SMILES	VCAM-1 inhibition	VCAM-1 down imaging	FPRL1 ligand	FPR binder	VCAM-1 up imaging
COc1ccc(C2CC(=O)N3CN(c4ccccc4F)CSC3=C2C#N)cc1OC (stereo unspecified)	.	.	5.9	27.2	.
O=C(O)C1CCC(=O)N1C1c2ccccc2Oc2ccccc21 (stereo unspecified)	.	.	5.9	2.6	.
CSc1ccc(S(=O)(=O)Nc2cccc(F)c2)cc1	i	i	-1.5	3.0	i
COc1ccc(C)cc1NC(=O)CNC(=O)Cn1ccc2ccccc2c1=O	i	i	-2.5	-4.3	i
CN(Cc1nc(-c2ccncc2)no1)S(=O)(=O)c1ccccc1	i	i	0.3	-4.4	i
CCOC(=O)CC(=O)CSc1ccc2nnc(-c3ccc(C)cc3)n2n1	.	.	-2.2	13.4	.
Nc1nonc1C(=O)NCCc1ccccc1	.	.	1.9	-4.9	.
CCc1ccc(NC(=O)CSc2nnc(Cn3c(=O)sc4ccccc43)n2C)cc1	.	.	-3.7	0.4	.
O=C1C=C(NCC2CCCO2)C2(CCCCC2)O1 (stereo unspecified)	.	.	0.1	4.1	.
CCOC(=O)c1[nH]c(C)c(C(=O)N(C)C)c1C	i	i	4.4	-5.1	i
COc1ccc(NC(=O)Nc2c(C)n(C)n(-c3ccccc3)c2=O)cc1	.	.	-1.5	0.2	.
CCN(CC)c1ncc(C)c(=O)[nH]1	i	i	-1.5	2.2	i
O=C(NC1=NCCS1)c1ccc2c(c1)C(=O)N(Cc1ccco1)C2=O	i	i	-1.4	14.7	i
CCOC(=O)c1c(C)n(C)c2ccc(OCC(O)CN(CC)CC)cc12 (stereo unspecified)	.	.	1.4	-4.7	.
COc1ccc(OC)c(NC(=O)CC(Cc2ccccc2OC)C(=O)O)c1 (stereo unspecified)	.	.	9.6	-7.8	.
Cc1cc(N2C(=O)C(=O)/C(=C(/O)c3ccc(F)cc3)C2c2ccc(Cl)cc2)no1 (stereo unspecified)	.	.	3.8	4.1	.
CCOc1ccc(C(=O)Nc2c3c(nn2C(C)(C)C)CSC3)cc1OCC	.	.	6.8	23.4	.
COc1ccc(S(=O)(=O)Nc2ccc(S(=O)(=O)N3CCCCC3)cc2)cc1OC	i	i	-0.5	-3.8	i
CC(=O)Nc1ccc(NC(=O)c2cc(C)nn2-c2ccccc2)cc1	i	i	7.6	0.7	i
CCC1CCCCN1CCCn1c(=S)[nH]c2ccccc2c1=O (stereo unspecified)	.	.	-3.0	-4.8	.
Cc1nn(C)c(C)c1CN(C)C(=O)c1cc2n(n1)C(C(F)(F)F)CC(c1cccs1)N2 (stereo unspecified)	.	.	-0.8	6.3	.
Cn1c(=O)c2c(nc(NCCCO)n2CCc2ccccc2)n(C)c1=O	i	i	3.4	1.0	i
Cc1ccc(-c2cc3nc4c(c(=O)n3[nH]2)CCCC4)cc1	i	i	3.9	2.1	i
CCOC(=O)c1c(C)n(C)c2ccc(OCC(O)CNC(CC)CO)cc12 (stereo unspecified)	.	.	-4.6	-5.0	.
COc1cc(-c2nnc(SCC(=O)N3CCCC3)o2)cc(OC)c1OC	.	.	-5.1	11.0	.
CC1(C)Cc2c(c(N3CCOCC3)nc3sc(C#N)c(N)c23)CS1	i	i	-0.4	-7.3	i
Cc1ccc(C)c(C(=O)N(Cc2nc(-c3ccc(Cl)cc3)no2)C(C)C)c1	.	.	-7.6	-6.1	.
CCc1[nH]nc2c1C1(CCN(C(=O)OCc3ccccc3)CC1)C(C#N)=C(N)O2	i	i	1.1	3.7	i
CC(C)(C)C(=O)Cn1c(=O)n(CC2CCCO2)c(=O)c2ccccc21 (stereo unspecified)	.	.	-9.3	3.5	.
Cc1c(C#N)c2ccccc2n1CC(=O)NCCc1c[nH]c2ccccc12	.	.	-3.2	4.8	.
N#Cc1nc(COc2ccc(Br)cc2)oc1N1CCCCCC1	.	.	-1.8	-1.8	.
CCOC(=O)N1CCC(NS(=O)(=O)c2cc3c(cc2Cl)NC(=O)CO3)CC1	.	.	-8.1	-18.8	.
Cc1ccc(-n2ncc3c(=O)[nH]c(SC(C)C)nc32)cc1	i	i	2.1	-6.5	i
CCCCN(CCCC)S(=O)(=O)c1ccc(C(=O)Nc2nnc(CSC)o2)cc1	.	.	-2.0	-5.5	.
COc1ccc(NC(=O)CSc2nc3c(c(=O)n2-c2ccc(F)cc2)SCC3)cc1	i	i	5.6	12.5	i
O=C1CSc2ccc(C(=O)N3CCN(c4ccccn4)CC3)cc2N1	.	.	-8.5	-0.3	.
COc1ccc(C2C(C(=O)NCCN(C)C)c3cc(OC)c(OC)cc3C(=O)N2C)cc1OC (stereo unspecified)	.	.	2.7	-0.8	.
c1ccc(-n2c(Sc3cnccn3)nnc2-c2cccs2)cc1	i	i	1.1	-3.8	i
COc1cccc(N2C(=O)C3CCCN3C2c2ccc(Cl)cc2)c1 (stereo unspecified)	.	.	1.1	0.1	.
CCCC(=O)Nc1ccccc1-c1nnn(CC(=O)Nc2ccc(OC)cc2)n1	i	i	3.2	9.7	i
Cc1c(C(=O)O)c(-c2ccccc2)nn1-c1ccccc1	i	i	19.0	10.4	i
N=c1c[n+](N2CCOCC2)[n-]o1	i	i	-0.5	9.2	i
COc1ccc(-n2nc(C(=O)Nc3ccc4c(c3)OCO4)c3c4ccccc4n(C)c3c2=O)cc1	i	i	-5.0	-14.4	i
COC(=O)CS(=O)(=O)c1cc(Br)cc2c1N(C(C)=O)CC2	.	.	12.4	4.0	.
CCOc1ccccc1C(=O)Nn1c(C2CCC2)nc2ccccc2c1=O	i	i	-10.2	-6.0	i
Cc1cccc(NC(=O)COc2ccc(Br)cc2)n1	i	i	1.2	5.0	i
COc1ccc(Cl)c(NCCC(=O)O)c1	i	i	-0.5	-8.4	i
CS(=O)(=O)Nc1ccc(S(=O)(=O)Nc2nccs2)cc1	i	i	-1.0	0.5	i

Limited to VCAM-1 down imaging and FPRL1 ligand, for two of the compounds above:
SMILES | VCAM-1 down imaging | FPRL1 ligand
COc1cccc(N2C(=O)C3CCCN3C2c2ccc(Cl)cc2)c1 (stereo unspecified) | . | 1.1
CCCC(=O)Nc1ccccc1-c1nnn(CC(=O)Nc2ccc(OC)cc2)n1 | i | 3.2

Additional results follow.
SMILES	VCAM-1 inhibition	VCAM-1 down imaging	FPRL1 ligand	FPR binder	VCAM-1 up imaging
O=C(c1ccccc1)c1ccc2nc[nH]c2c1	i	i	-6.3	-4.3	i
O=C1c2cccnc2C(O)N1C1CCCCC1 (stereo unspecified)	.	.	4.5	-3.0	.
COc1cc(NC(=O)C2CCCN2C(=O)C2CCC(C)CC2)cc(OC)c1OC (stereo unspecified)	.	.	7.8	-1.5	.
COc1ccc(Cn2c(CCC(=O)N3CCN(c4ccccn4)CC3)nc3ncccc3c2=O)cc1	.	.	-2.5	3.7	.
Cc1noc(C)c1S(=O)(=O)Nc1ccc(C(=O)NC2CCCCCC2)cc1	.	.	-3.3	-5.1	.
CCc1ccccc1-n1c(SCC(=O)N2CCCC2)nnc1-c1ccccn1	i	i	11.9	-2.2	i
COc1ccc2[nH]c(C(=O)O)c(CCNC(C)=O)c2c1	.	.	7.6	5.7	.
CCc1nnc(NC(=O)CSc2nnc(Cc3ccccc3)n2-c2ccc(OC)cc2)s1	i	i	7.3	1.1	i
Cc1cc(NC(=O)CSc2ccc(Cl)cc2)no1	i	i	2.7	-3.6	i
O=C(CCCn1c(=S)[nH]c2ccccc2c1=O)N1CCOCC1	.	.	4.6	-2.5	.
COc1ccc2nc3oc(C(=O)NC4CCN(Cc5ccccc5)CC4)cc3cc2c1	i	i	-2.4	1.6	i
CCOCCCNC(=O)CCS(=O)(=O)Cc1ccc(C)cc1	.	.	-0.1	-3.7	.
COc1cccc(CN2CCN(C(=O)CC(C)C)CC2)c1	i	i	-33.8	0.6	i
CC1(C)Cc2ccccc2C(N)=C1C#N	i	i	21.6	0.0	i
CCOCCCNC(=O)Cn1cc2c(n1)CCCCC2	i	i	3.8	1.3	i
COc1ccc(S(=O)(=O)NCCSCc2ccco2)cc1Cl	i	i	1.4	11.2	i
CC(C)Cn1c2c(c(O)c(C(=O)Nc3ncccc3O)c1=O)CCCC2	i	i	-2.7	-1.1	i
O=C(c1cc(-c2ccco2)on1)N1CCOCC1	.	.	4.0	0.8	.
COc1ccc2nc(N3CCC(C)CC3)c(C#N)cc2c1	i	i	-4.5	8.8	i
Cc1nc2c(C#N)c[nH]n2c(=O)c1Cc1ccccc1	.	.	-6.8	39.7*	.
COc1ccccc1-n1nc(C(=O)O)c2ccccc2c1=O	.	.	-2.6	5.2	.
CCOC(=O)CNc1c(N2CCN(c3ccccn3)CC2)c(=O)c1=O	.	.	-2.8	5.7	.
O=C(Nc1cccc(-c2nnc(-c3ccccc3)o2)c1)C1CCCCC1	i	i	-1.4	6.2	i
COc1ccc(F)cc1S(=O)(=O)NC(Cc1ccccc1)C(N)=O (stereo unspecified)	.	.	-1.9	0.4	.
NC(=O)c1cccc2c1C(=O)N(C1CCCCC1)C2	i	i	1.2	-7.5	i
CCc1nnc(NC(=O)Nc2ccc(OC)cc2)s1	.	.	-2.2	3.8	.
Cc1cc(Br)ccc1NC(=O)CNC(=O)CSc1n[nH]c(N)n1	i	i	-0.1	3.6	i
CCn1cnc2sc(C(=O)N3CCN(Cc4ccc5c(c4)OCO5)CC3)c(C)c2c1=O	.	.	-2.8	-3.5	.
CCC(=O)N1CCc2cc(Br)cc(S(=O)(=O)C3(C(=O)OC)CC3)c21	i	i	-1.5	1.5	i
O=C(Nc1ccccc1)C1=C(O)CC(c2ccoc2)CC1=Nc1ccccc1 (stereo unspecified)	i	i	-6.9	-1.1	i
CC1CN(CC(O)COc2ccc(C(C)C)cc2)CC(C)O1 (stereo unspecified)	i	i	0.9	-5.5	i
CCOC(=O)c1[nH]c2ccccc2c1NC(=O)C1CCCCC1	.	.	-6.0	-4.5	.
CCCN(c1ccc(OCC)cc1)S(=O)(=O)c1ccc2c(c1)CCN2C(=O)CCC(=O)O	.	.	-4.1	-2.6	.
COC(=O)c1cc2ccc(OC)c(OC)c2c(=O)s1	.	.	4.7	4.0	.
COc1cccc(N(C(C)=O)c2nc(C)cc(C)c2C#N)c1	i	i	-6.6	-2.6	i
NC(=O)NC(=O)CSc1cccc(C(F)(F)F)c1	i	i	-4.5	3.1	i
CCOc1ccc(Cn2nnc(C(=O)NCc3ccccc3)c2N)cc1	.	.	-4.1	4.1	.
C/C=C(\C)c1nnc(NC(=O)OCC)s1	i	i	2.1	-9.2	i

Screening results (PubChem)
